NPYLR7 agonist = agonists of mosquito NPYLR7 receptor, primary screen, cell-based, Aedes aegypti, calcium fluorescence, mosquito biting behavior; Aedes aegypti neuropeptide Y-like receptor 7 (NPYLR7); actives 0.15% (n = 270,000); activation, % at 10 µM; AID 1259423, 2018; HEK293T NPYLR7/Galpha15, GCaMP6s calcium fluorescence; in the data active = activation above about 40%;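 also: 0% = vehicle and 100% = reference agonist at the receptor; some compounds past the cut are filed as inactive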
NPYLR7 agonist max-min = further read-out of NPYLR7 agonist, marked with its call; activation, %; measured here: Max-Min RFU normalised activation; some inactives read as strong as hits;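 span of the calcium signal over five minutes; 0% = vehicle and 100% = native peptide agonist; compound fluorescence can raise it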
Numbers without * were called inactive; & = joins results of further samples. Not all compounds are listed; the hit share may differ from the screen's.

SMILES | NPYLR7 agonist | NPYLR7 agonist max-min
O=C(CNc1ncc(C(F)(F)F)cc1Cl)N1CCc2ccccc21 | 1 | -2
O=C(CCC1CCCC1)N1CCN(Cc2nnnn2-c2ccc(Cl)cc2)CC1 | -1 | -2
CCCC1(C(=O)NCC(O)c2c(Cl)cccc2Cl)CCC1 (stereo not drawn) | 1 | -5
C=C1C(=O)O[C@@H]2C[C@@]3(C)CCC[C@H](C)C3=C[C@H]12 | -6 | -10
COc1cc(OC)c2cc(C(=O)N(C)Cc3cnn(C)c3)[nH]c2c1OC | -4 | -8
Cc1ccccc1CN(C)C(=O)c1ccnc(NC2CC2)c1 | -2&-14 | -2&-15
O=C1OC(C2COC3(CCCCC3)O2)C2OC3(CCCCC3)OC12 (stereo not drawn) | 3 | 0
COc1ccc(C(=O)OC2CCCCCC2)cc1S(=O)(=O)N1CCCC1 | 14 | 9
CCCCN(Cc1cccc(OC)c1)C(=O)c1cnc(C)[nH]1 | 3 | -2
Cc1cccc(OCCC(=O)NNC(=O)c2ccoc2C)c1 | 23 | 22
CC(C)(C)c1ccc2oc(=O)n(C3CCN(C(=O)c4cncc(Br)c4)CC3)c2c1 | 22 | 27
CC(C)(C)c1ccc(C(=O)N2CCC2(C)C(=O)Nc2ccccc2Br)cc1 (stereo not drawn) | 9 | 8
CCOC(=O)CC1=NC(C)(C)CC2=C(OC)C3(C=CC2=C1)CC(C)(C)N=C3CC(=O)OCC (stereo not drawn) | 3 | 35
Cc1cccc(CSc2nc(=O)n(CCCO)c3c2CCC3)c1 | -6 | -10
CCSc1nc2c([nH]c3ccccc32)c(=O)n1CCOC | 1 | 0
O=C(NCCNc1cccc2ccccc12)c1cccnc1Oc1cccc([N+](=O)[O-])c1 | -17 | -23
CCOc1ccc(CNC(=O)C(=O)c2c(C)n(C)c3ccccc23)cc1OC | -2 | -4
O=C(O)/C=C/c1cccc(-c2nccnc2NCCc2ccccn2)c1 | -7 | -12
C=C1c2ccccc2N=C(SCC(=O)NCC(F)(F)F)N1C | -1 | -1
CCOc1ccc(C(=O)NCCc2cc3ccc(C)cc3[nH]c2=O)cc1 | 1 | 31
Cc1nnc(SCC(=O)NC(C)Cc2cnccn2)s1 (stereo not drawn) | 3 | -2
COc1ccc(-c2cnc3ncnn3c2N2CCCC(C(F)(F)F)C2)cc1 (stereo not drawn) | 18 | 9
O=C1NCC(c2ccc(Cl)cc2)Cc2[nH]c(-c3nnc4n3CCC4)nc21 (stereo not drawn) | -1 | -4
Cc1ccc(-c2nc(NC(=O)Cn3cccnc3=O)sc2C)s1 | -1&8 | -1&3
Cc1cc(NC(=O)C(C)(C)Oc2ccc(Cl)cc2)n(-c2nc(C)c(C)c(=O)[nH]2)n1 | 10 | 2

Single records, as listed above:
Profile of CCCCN(Cc1cccc(OC)c1)C(=O)c1cnc(C)[nH]1 = NPYLR7 agonist: 3; NPYLR7 agonist max-min: -2
Profile of O=C(CCC1CCCC1)N1CCN(Cc2nnnn2-c2ccc(Cl)cc2)CC1 = NPYLR7 agonist: -1; NPYLR7 agonist max-min: -2

Additional results:
SMILES | NPYLR7 agonist | NPYLR7 agonist max-min
COc1ccc(S(=O)(=O)Oc2cccc(CN(CC3CCCO3)C(=O)C3CCC3)c2)cc1 (stereo not drawn) | 7 | 16
CN1CCN(C(=O)C2=CC(c3ccco3)=NS(=O)(=O)N2C)CC1 | 3 | 0
O=S(=O)(c1cc(Cl)cc(Cl)c1O)N1CCCCC1 | 1 | -2
COC(=O)CSc1ncc(-c2ccc(F)cc2)c(C2CCCN(C(=O)c3csc(C)n3)C2)n1 (stereo not drawn) | 24 | 8
O=C(NCCN1C(=O)SC(=Cc2ccc(Cl)cc2Cl)C1=O)c1ccc(-n2cnnn2)cc1 | 1 | -1
COc1ccccc1CCC(=O)N1CCC(n2cnc3ccccc32)CC1 | 3 | 13
CC(CCc1ccccc1)NC(=O)NCCC1CCCC1 (stereo not drawn) | 4 | 1
CCCn1c(C)c(C)n2c3c(=O)n(CC(N)=O)c(=O)n(C)c3nc12 | 6 | 2
COc1ccc(N2CCN(C(=S)Nc3ccccc3)CC2)cc1 | -7 | -11
COc1ccc2cc(-c3[nH]ncc3CN3CCCC3c3ccccn3)ccc2c1 (stereo not drawn) | 3 | 1
CCn1c(C)cc(O)c(C(c2ccccc2OC)N2CCN(CCO)CC2)c1=O (stereo not drawn) | 11 | 3
CCOC(=O)c1cc([N+](=O)[O-])[nH]n1 | 6 | 9
Cc1ccc(NC(=O)c2ccc(C)c(S(=O)(=O)Nc3ccc(C)cc3)c2)cc1 | 3 | 2
Cc1cc(-n2cccn2)ccc1CN1CCC(CO)(Cc2ccccc2)CC1 | 16 | 18
CNC(=S)N1N=C(c2ccc(Br)cc2)CC1c1ccc(OC)cc1 (stereo not drawn) | 1 | 3
CCOC(=O)CN(C)C(=O)c1coc(COc2ccccc2F)n1 | 4 | -1
N#CCc1nc(CSc2nnnn2-c2ccccc2)cs1 | 8 | 3
CC1CCc2nc(NC(=O)C3Cc4ccccc4O3)sc2C1 (stereo not drawn) | -3 | -3
CCC(C(=O)N1CCC2(CC1)C(=O)NCCN2C)n1cccn1 (stereo not drawn) | 7 | 4
CC1OC2Cc3ccccc3C2N(Cc2ccc(OC(F)(F)F)cc2)C1=O (stereo not drawn) | 0 | -3
Cc1ccccc1C(=O)N1CCC(C(=O)Nc2ccc(CC#N)cc2)CC1 | 3 | 2
CSCC[C@@H](CO)n1ccnc1-c1ccccc1C(=O)O | 6 | -2
O=C(c1cc(CN2CCC(Cc3ccccc3)CC2)on1)N1CCCC1 | 2 | 0
O[C@H]1CO[C@@H]2CC[C@@H](NCc3cc(Cl)cc(Cl)c3)[C@@H]1C2 | 15 | 24
Fc1ccc(F)c(-n2c(Cc3csc4nc(-c5ccccc5)nn34)n[nH]c2=S)c1 | 5 | 2
Following part:
SMILES | NPYLR7 agonist | NPYLR7 agonist max-min
COc1cc(C2CN(C(=O)c3ccccc3C)CC2C(=O)NC(C)C)cc(OC)c1OC (stereo not drawn) | 7 | 5
CC1=CCC=CC1C(=O)NC1CCc2[nH]c3cc(C)cc(C)c3c2C1 (stereo not drawn) | 27 | 15
CC(NC(=O)COc1cccc(Br)c1)c1ccc(-n2ccnc2)cc1 (stereo not drawn) | -1 | -1
CCn1nnc2c(SCc3ccc(Cl)cc3Cl)ncnc21 | 2 | 19
O=C(Nc1cccc(F)c1)C1CCCN(C(=O)c2ccco2)C1 (stereo not drawn) | 1 | 1
Cn1ccccc1=N | -8 | -13
O=C(Cn1cnc([N+](=O)[O-])n1)N1CCOCC1 | 6 | 4
CNC(=O)c1ccc(-n2cccc2)cc1 | 11 | 6
Cc1ccc(-n2cnnc2SCC(=O)N2CCCC(C)C2)cc1Cl (stereo not drawn) | 1 | -4
COc1cc(C(=O)N2CCN(c3ccc(-n4cccn4)nn3)CC2)cc(OC)c1OC | 20 | 19
CCc1ccc(NC(=O)CN(Cc2ccccn2)S(C)(=O)=O)cc1 | 3 | 0
COc1ccc(OCc2nc(CSc3c(C)cccc3C)cs2)cc1 | 0 | -6
CCn1c(-c2ccc(Cl)cc2)nn(CN2CCc3sccc3C2)c1=S | 11 | 16
CC(C)(C)S(=O)(=O)c1ccc(N2CCN(c3ccccc3)CC2)nn1 | -1 | -4
COc1ccc2nc(N(CCN(C)C)C(=O)CCS(=O)(=O)c3ccc(F)cc3)sc2c1 | -4 | -6
Cc1c(Cl)cccc1N1CN(C(=O)CN(Cc2ccccc2)C(=O)CC(C)CC(C)(C)C)CC1=O (stereo not drawn) | 20 | 20
OCC#Cc1ccc(CN2CCc3onc(-c4ccc(Cl)cc4)c3C2)cc1 | 23 | -6
C[C@H]1C(=O)N(C)CCN1C(=O)c1ccc2nc(Cc3cccc(Cl)c3)oc2c1 | 11 | 4
Cc1cccc(CN2C(=O)C3(c4ccccc42)N(c2ccc(F)c(F)c2)C(=O)CS3(=O)=O)c1 (stereo not drawn) | 8 | 4
CCS(=O)(=O)NCCc1csc(-c2ccccc2)n1 | -3 | 2
CC(C)(C)c1cc(NC(=O)c2ccc(F)c(F)c2)n(-c2ccc(Br)cc2)n1 | 11 | 0
Cc1cccc(Oc2cnn(-c3ccccc3Cl)c(=O)c2Nc2cccc(C(=O)N3CCCC3)c2)c1 | -7 | 5
CSc1nc(N2CCOCC2)c2cnn(CCNC(=O)Cc3ccc(F)cc3)c2n1 | 1 | 1
CS(=O)(=O)N(CC(F)(F)F)C1CCN(C2C=CCCC2)CC1 (stereo not drawn) | 4 | 1
Nc1nc(OCc2ccccc2)c2[nH]cnc2n1 | 6 | -3
(listing goes on)
SMILES | NPYLR7 agonist | NPYLR7 agonist max-min
CN(Cc1cc(-c2cccs2)n[nH]1)C(=O)c1cnn2ccn(C)c12 | 9 | 7
COc1ccc(OCC(O)CN(Cc2ccccc2)Cc2ccc(C)s2)cc1 (stereo not drawn) | 22 | 22
O=C1C(=Cc2cccs2)CCC1=Cc1cccs1 | -11 | -16
CCC(NCC(C)C)c1ccccc1 (stereo not drawn) | 2 | 0
Cc1nc(SCC(=O)N(C)c2ccccc2)c2c(C)c(C)sc2n1 | -3 | -7
CCCN(CC1CCCO1)C(=O)c1cc(COc2ccc3sc(C)nc3c2)on1 (stereo not drawn) | 4 | 7
COC(=O)C1CCCC2=C(C)C(=O)CCC21C(=O)OC (stereo not drawn) | -6 | -8
COCc1ccc(C(=O)NCc2c(C)ncc3c2CCN(C(=O)c2ccc(OC)c(F)c2)C3)o1 | 2 | -1
O=c1c2ccccc2n(Cc2nc(-c3ccccc3Cl)no2)c(=O)n1CCc1ccccc1 | -7 | -10
S=c1nn[nH]n1-c1ccc(Cl)cc1 | 6 | 4
COC1CCN(S(=O)(=O)N2CCCC2c2ccc(F)cc2)CC1 (stereo not drawn) | -1 | 0
COc1cc2c(cc1OC)CN(c1cc(C(=O)NCc3cccc(Cl)c3)c3ccccc3n1)CC2 | 5 | 2
CC1C(=O)N(C)CCN1C(=O)Cc1cn(C)c2ccccc12 (stereo not drawn) | 1 | 1
Cc1noc(C)c1C(=O)NC1CCN(CCc2ccccc2)CC1 | 4 | 2
Cc1ccc2oc(CN(Cc3ccncc3)C(=O)c3ccc(-c4ccccc4)cc3)nc2c1 | 4 | 2
CCOc1ccc(NC(=O)NCC2COc3ccccc3O2)cc1 (stereo not drawn) | -3 | -10
Cc1ccccc1-n1ncc2c(C)n[nH]c(=O)c21 | -4 | -6
CC/C=C(\C)CN1CCN(C(=O)c2ccccc2)CC1 | 4 | 6
Cc1cc(C)n(-c2ccc(N3CC4CN5CCCCC5C4C3)nc2)n1 (stereo not drawn) | 7 | 4
O=C(N=C1N=C2C=CC(Br)=CN2Cc2ccccc21)c1ccccn1 | -14 | -19
Cc1nn(C(C)C)c(C)c1S(=O)(=O)N1c2ccccc2SCC1C (stereo not drawn) | 6 | 5

Part of the list above, with each value named:
canonical_smiles: CCC(NCC(C)C)c1ccccc1 (stereo not drawn)
  NPYLR7 agonist: 2; NPYLR7 agonist max-min: 0
canonical_smiles: Cc1nc(SCC(=O)N(C)c2ccccc2)c2c(C)c(C)sc2n1
  NPYLR7 agonist: -3; NPYLR7 agonist max-min: -7
canonical_smiles: CCCN(CC1CCCO1)C(=O)c1cc(COc2ccc3sc(C)nc3c2)on1 (stereo not drawn)
  NPYLR7 agonist: 4; NPYLR7 agonist max-min: 7
canonical_smiles: COC(=O)C1CCCC2=C(C)C(=O)CCC21C(=O)OC (stereo not drawn)
  NPYLR7 agonist: -6; NPYLR7 agonist max-min: -8

Bioassay records from PubChem.
